Screening results as filed in PubChem.
Ecoli rRNA inh: reduced GFP signal of wild-type E. coli, primary screen, bacterial rRNA inhibitor project, GFP/RFP fluorescence, OD600, single point. E. coli WT GFP vs humanized-ribosome RFP mutants, 24 h; hits give low values; DMSO median 0, no signal -100. GFP signal change (wild-type ribosome), % (test concentration not listed). actives 1.6% (n = 350,000). AID 720706, 2013;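 active means significant combined selectivity score with lowered wild-type GFP, culture density cut under 30%, mutant RFP and density less affected; inactive means any of these conditions unmet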; further: one replicate is shown; some compounds called inactive have numbers as strong as hits
FGF22 binding: binders of human FGF22 protein, primary screen, FGF22 synaptogenesis inhibitor project, biophysical, thermal shift, single point. Fibroblast growth factor 22 (Homo sapiens), Q9HCT0. recombinant FGF22 thermal shift, SYPRO orange fluorescence; percent of sucrose octasulfate shift, DMSO zero. AID 651658, 2012. actives 1.5% (n = 340,000). calls only at 9.99 µM;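 active means melting point raised past a set limit in the mean and every replicate; three in four hits are not shown here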
Target sequence (Q9HCT0 whole entry, looked up): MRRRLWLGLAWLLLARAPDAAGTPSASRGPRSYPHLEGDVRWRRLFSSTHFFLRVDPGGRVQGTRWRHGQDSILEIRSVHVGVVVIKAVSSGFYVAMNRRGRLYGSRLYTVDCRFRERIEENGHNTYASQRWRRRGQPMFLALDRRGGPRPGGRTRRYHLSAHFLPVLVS
MLL AF4-AF9 inh: inhibitors of AF4 peptide binding to AF9, primary screen, biochemical, AlphaScreen, biotin-AF4 peptide, FLAG-AF9, single point. Protein AF-9 (Homo sapiens), P42568. inhibition, % at 10 µM. actives 0.47% (n = 350,000);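 active means every replicate reaching a set inhibition limit, whatever the replicate mean, cut at about 25% in these data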;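 further: 0% = plate neutral control median and 100% = total signal loss; the record names both 10 and 1 µM as test concentration; the first replicate is given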
Target sequence (P42568 whole entry, looked up): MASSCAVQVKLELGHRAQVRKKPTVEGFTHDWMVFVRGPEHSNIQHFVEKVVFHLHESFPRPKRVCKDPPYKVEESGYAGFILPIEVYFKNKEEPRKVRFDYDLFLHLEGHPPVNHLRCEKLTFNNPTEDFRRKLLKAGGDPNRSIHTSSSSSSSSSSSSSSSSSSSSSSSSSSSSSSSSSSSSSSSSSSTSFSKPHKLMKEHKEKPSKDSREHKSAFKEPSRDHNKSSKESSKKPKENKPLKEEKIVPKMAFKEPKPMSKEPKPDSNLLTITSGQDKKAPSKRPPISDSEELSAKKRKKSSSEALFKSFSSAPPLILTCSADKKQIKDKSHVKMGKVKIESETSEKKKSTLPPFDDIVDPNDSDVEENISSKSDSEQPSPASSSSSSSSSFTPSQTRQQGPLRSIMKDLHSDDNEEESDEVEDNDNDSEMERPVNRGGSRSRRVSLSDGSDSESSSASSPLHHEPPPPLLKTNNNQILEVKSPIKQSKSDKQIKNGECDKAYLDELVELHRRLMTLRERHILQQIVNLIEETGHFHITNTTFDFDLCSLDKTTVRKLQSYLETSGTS
Ecoli rRNA inh OD600: also measured in Ecoli rRNA inh; calls as there; OD600 change, %; measured here: OD600 growth;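 optical density of the mix in the first replicate; 0 = DMSO median and -100 = no signal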
Ecoli rRNA inh RFP: recorded beside Ecoli rRNA inh, whose call it bears; RFP signal change, %; measured here: RFP humanized mutant strains;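 first replicate; 0 = DMSO median and -100 = no signal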
Numbers without * were called inactive; i = inactive; & = joins results of further samples. This is a subset. The share of hits here may be higher or lower than overall.

SMILES	Ecoli rRNA inh	Ecoli rRNA inh OD600	Ecoli rRNA inh RFP	FGF22 binding	MLL AF4-AF9 inh
CN(C)c1cccc(CN2CCN(c3ccccc3)CC2)c1	8	0	2.0	i	13
O=C1NCN(c2ccccc2)C12CCN(C(c1ccccc1)c1nnnn1C1CCCC1)CC2 (stereo not given)	17	14	0.9	i	-1.5
Cc1ccccc1-c1ccc([C@@H]2[C@@H](CO)N3CCCCN(C(=O)Cc4ccccn4)C[C@@H]23)cc1	2	-40	11	i	-3.6
O=C1NCN(c2ccccc2)C12CCN(C(c1cccc3ccccc13)c1nnnn1C1CCCCC1)CC2 (stereo not given)	1	12	1.7	i	-0.9
COC(=O)NC(=S)Nc1ccccc1NC(=S)NC(=O)OC	6	10	4.2	i	-4.5
O=C(Cc1ccncc1)N1CCCCN2[C@H](C1)[C@H](c1ccc(C#CC3(O)CCCC3)cc1)[C@@H]2CO	2	7	1.2	i	-1.2
COC(=O)[C@H]1[C@H](CO)[C@H]2Cn3c(ccc(C4=CCCC4)c3=O)[C@@H]1N2Cc1ccccn1	5	0	1.7	i	0.4
N#Cc1cccc(-c2ccc([C@H]3[C@@H](CO)N4CCCCN(C(=O)Cc5ccncc5)C[C@H]34)cc2)c1	1	4	0.9	i	-1.0
CCOC(=O)[C@]12Cc3cc4ccccc4cc3[C@H]1N(Cc1ccccc1)C(=O)c1cc(OC)ccc12	-28	-34	-8.6	i	-5.0
O=C1CCC2(O)C3Cc4ccc(O)c5c4C2(CCN3Cc2ccoc2)C1O5 (stereo not given)	5	18	2.9	i	-3.1
O=C(NCC1=C(c2cccc3ccccc23)C[C@@H]2CC[C@H]1N2Cc1ccco1)c1cccs1	-5	-12	0.5	i	12
O=C(NCCN1CCC2(CC1)C(=O)NCN2c1cccc(F)c1)c1ccc2ccccc2c1	-36	-50	-13	i	12
COc1ccc(-c2ccc([C@@H]3[C@H]4CN(C(=O)Cc5ccccc5)CCCCN4[C@H]3CO)cc2)cc1	-49	-57	0.1	i	-1.7
COc1cccc(N2C(=O)NC(=O)/C(=C\c3ccc([N+](=O)[O-])s3)C2=O)c1	19	15	9.0	i	-1.6
CC(=O)O[C@H]1C[C@@H]2OC3C=C(C)CCC3(C)[C@@]1(C)[C@@]21CO1 (stereo not given in full)	1	1	-1.3	i	-1.6
C/C=C/c1ccc([C@H]2[C@H](CO)N3CCCCN(C(=O)Cc4cccnc4)C[C@@H]23)cc1	-6	3	-4.1	i	-0.9
O=C(Cc1cccnc1)N1CCCCN2[C@H](CO)[C@@H](c3ccc(C#CC4(O)CCCC4)cc3)[C@@H]2C1	1	14	1.0	i	-4.5
C[C@H](CO)N1C[C@H](C)[C@H](CN(C)C(=O)Oc2ccccc2)OCc2cnnn2CCCC1=O	5&1	6&4	1.3&-2.1	i	-3.8&0.3
Cc1cccc(C)c1-n1nnnc1C(c1cccc2ccccc12)N1CCC2(CC1)C(=O)NCN2c1ccccc1 (stereo not given)	19	9	3.8	i	0.7
COc1ccc(-n2nnnc2C(c2cccc3ccccc23)N2CCC3(CC2)C(=O)NCN3c2ccccc2)cc1 (stereo not given)	4	7	-3.6	i	-0.3
COC12c3ccccc3-c3ccccc3C1C(C(=O)O)C2C(=O)O (stereo not given)	-1	22	0.6	i	-2.6
CC=Cc1ccc2n(c1=O)C[C@H]1[C@H](CO)[C@@H](C(=O)OC)[C@@H]2N1CC1CCCCC1 (mixture of isomers)	-3	-3	2.4	i	1.9
O=C(Nc1cccc(Cl)c1)OCC#CCN1CCCC1	-27	-44	14	i	-7.1
CCC(c1nnnn1Cc1ccccc1)N1CCC(n2c(=O)[nH]c3ccccc32)CC1 (stereo not given)	-10	-18	-5.3	i	-4.6
COC(=O)C1=C(c2ccc(OCc3ccccc3)cc2)C[C@@H]2CC[C@H]1N2C(=O)NCc1ccc(OC)cc1	-6	-4	-5.8	i	-0.8
CCOC(=O)c1cnc(N2CC2)nc1N	14	14	6.0	i	1.4
COc1ccc(-c2ccc3n2Cc2cnnn2-c2ccccc2-3)cc1	-36	-38	-15	i	8.4
CCN1[C@@H]2Cn3c(ccc(-c4cccc(C(=O)N(C)C)c4)c3=O)[C@H]1[C@@H](C(=O)OC)[C@@H]2CO	2	6	1.3	i	-27
COc1ccc(CC(=O)C2C(=O)N(C)c3ccccc32)cc1OC (stereo not given)	-19	-25	-9.4	i	4.5
C[C@@H]1CN([C@H](C)CO)C(=O)CCCn2nncc2CO[C@@H]1CN(C)C(=O)Oc1ccc2ccccc2c1	2&-3	14&-2	-2.3&2.7	i	-0.4&2.7
CC(=O)NCC1=C(c2ccc(S(C)(=O)=O)cc2)C[C@@H]2CC[C@H]1N2CCOc1ccccc1	13	9	-2.2	i	-4.4
C=CCC1(CC)C(=O)NC(=S)NC1=O	2	6	-2.9	i	-2.5
COc1cccc(CN2CC3(C2)[C@H](c2ccccc2)[C@H](CO)N3C(=O)Cc2ccccc2)c1	-5	-1	0.1	i	2.3
CCN1/C(=C/C=C/C2=[N+](CC)c3ccccc3C2(C)C)C(C)(C)c2ccccc21	103	-78	67	i	3.1
Clc1cccc(N2Cc3cc(N4CCOCC4)ccc3-n3nncc3C2)c1	-9	-24	-4.1	i	0.7
COc1ccc(CC2C(=O)NC(C)C(=O)N(C)C3C(=O)N(C)C(Cc4ccc(O)c(c4)Oc4ccc(cc4)C3O)C(=O)NC(C)C(=O)NC(C)C(=O)N2C)cc1 (stereo not given)	7	7	2.7	i	-1.6
CCCC1CCCCC12C(=O)NC(=O)NC2=O (stereo not given)	3	10	-3.5	i	-2.8
COC(=O)[C@H]1[C@H](CO)[C@H]2Cn3c(ccc(/C=C/c4ccccc4)c3=O)[C@@H]1N2Cc1ccccc1F	-11	-50	40	i	-87
CC12CC(O)C3C(CCC4=CC(=O)CCC43C)C1CCC2=O (stereo not given)	-7	-6	1.9	i	-2.2
CC12CC(=O)C3C(CCC4CC(=O)C=CC43C)C1CCC2=O (stereo not given)	-3	-19	2.5	i	-0.3
CCCNC(=O)N1[C@@H]2c3ccc(-c4cccc(C(=O)N(C)C)c4)c(=O)n3C[C@H]1[C@H](CO)[C@H]2C(=O)O	4	4	-0.3	i	-2.5
COC1/C=C/C=C(\C)Cc2cc(O)c(Cl)c(c2)N(C)C(=O)CC(OC(=O)C(C)C)C2(C)OC2C(C)C2CC1(O)NC(=O)O2 (stereo not given)	13	9	5.8	i	0.4
COc1ccc(-c2nc3ccc(Br)cn3c2CC(=O)N2CCCC2)cc1OC	13	7	5.5	i	-1.1
COC(=O)[C@@H]1[C@@H](CO)[C@@H]2Cn3c(ccc(/C=C/c4ccccc4)c3=O)[C@H]1N2C(=O)C1CCC1	-2	-13	2.2	i	-12
CCCCC1C(=O)NC(=S)N(C)C1=O (stereo not given)	1	1	-6.3	i	-2.7
CC=Cc1ccc2n(c1=O)C[C@H]1[C@H](CO)[C@@H](C(=O)OC)[C@@H]2N1S(=O)(=O)c1ccccc1C (mixture of isomers)	-2	-15	0.3	i	1.4
O=P1(c2ccccc2)CC=CC1	6	27	4.6	i	8.7
COOCC1(C(=O)OC)C[C@H](c2ccc(OC)cc2)N(Cc2ccccc2OC)[C@@H]1c1ccccc1C (stereo not given in full)	15	16	0.4	i	-1.8
CC(OC(=O)c1cn(C)c2ccccc12)C(=O)N(C)c1ccccc1 (stereo not given)	-2	-4	1.2	i	0.0
O=C(Cc1ccccn1)N1CCCCN2[C@@H](CO)[C@@H](c3ccc(-c4ccc(F)cc4)cc3)[C@@H]2C1	-5	1	-0.5	i	-1.2
The list goes on.
SMILES	Ecoli rRNA inh	Ecoli rRNA inh OD600	Ecoli rRNA inh RFP	FGF22 binding	MLL AF4-AF9 inh
CSCCC(c1nnnn1-c1ccc2c(c1)OCCO2)N1CCC2(CC1)C(=O)NCN2c1ccccc1 (stereo not given)	-6	-8	4.5	i	5.1
O=C1CNC[C@@H]2[C@H](c3ccc(Br)cc3)[C@@H](CO)N12	3	5	-4.3	i	-3.8
CCCC#Cc1ccc([C@H]2[C@H]3CN(C(=O)Cc4ccccn4)CCCCN3[C@H]2CO)cc1	-1	1	2.5	i	1.6
Cn1cc(C(=O)OCC(=O)Nc2ccccc2Cl)c2ccccc21	4	20	-0.4	i	1.2
Cc1ccc(C(O)(C(=O)OC(C)C)C(O)c2ccc(F)cc2)cc1 (stereo not given)	-21	-23	-0.6	i	-1.0
C[C@H]1COc2cccc(N3CCN(C)CC3)c2S(=O)(=O)N1	18	9	2.4	i	-4.8
C#C[C@]1(O)CCC2C3C(=O)C=C4C=CCC[C@]4(C)C3CC[C@@]21C (stereo not given in full)	-6	-4	4.2	i	-6.6
CCC1CN1P(=O)(Oc1ccc(Cl)cc1)N1CC1CC (stereo not given)	1	4	3.4	i	-24
COC(=O)[C@H]1[C@H](CO)[C@H]2Cn3c(cccc3=O)[C@@H]1N2C(=O)C1CCCC1	4	15	-1.8	i	-8.5
Cc1ncoc1C(=O)NCC1=C(c2ccc(S(C)(=O)=O)cc2)C[C@@H]2CC[C@H]1N2CCOc1ccccc1	1	4	-4.3	i	-0.7
O=C(Cc1cccnc1)N1CCCCN2[C@H](CO)[C@@H](c3ccc(C#CC4(O)CCCC4)cc3)[C@H]2C1	2	7	-2.6	i	-6.1
C/C=C1\NC(=O)[C@@H](NC(=O)[C@H](CCc2ccc(O)cc2)NC(=O)[C@H](C)NC(=O)[C@H](O)CO)[C@@H](C)OC(=O)[C@H](C(C)C)NC(=O)[C@H](Cc2ccc(O)cc2)N(C)C(=O)[C@H](Cc2ccccc2)N2C(=O)C(CC[C@H]2O)NC1=O (stereo not given in full)	18	16	-0.6	i	-0.2
COC(=O)C1=C(c2ccc(OCc3ccccc3)cc2)C[C@@H]2CC[C@H]1N2C(=O)NCc1ccc2c(c1)OCO2	-2	-5	6.4	i	0.5
O=C(Cc1cccnc1)N1CCCCN2[C@H](CO)[C@@H](c3ccc(/C=C/c4ccccc4)cc3)[C@@H]2C1	-58	-69	-12	i	9.0
C=CCOC(=O)C1C(C(=O)O)C2(Cl)C(Cl)=C(Cl)C1(Cl)C2(Cl)Cl (stereo not given)	-42	-60	-13	i	0.1
Cc1cccc(N=C2c3cc([N+](=O)[O-])ccc3-c3c2cc([N+](=O)[O-])cc3[N+](=O)[O-])c1	-28	-38	-9.5	i	-2.6
O=C(Cc1ccccc1)N1CCCCN2[C@H](CO)[C@H](c3ccc(C#Cc4ccccc4)cc3)[C@H]2C1	-58	-71	-12	i	-0.2
C[C@H](Cc1ccc(OCC(=O)O)cc1)NC[C@H](O)c1cccc(Cl)c1	13	2	4.1	i	-2.3
CCOC(=O)[C@]12Cc3cc(C)ccc3[C@H]1N(C1CCCCC1)C(=O)c1ccccc12	-28	-73	-18	i	-3.4
COc1ccc(OC(=O)N(C)C[C@@H]2OCc3cnnn3CCCC(=O)N([C@@H](C)CO)C[C@H]2C)cc1	12&0	16&2	-2.7&-0.9	i	0.0&2.8

Pulled by compound from the list above:
SMILES	Ecoli rRNA inh	Ecoli rRNA inh OD600	Ecoli rRNA inh RFP	FGF22 binding	MLL AF4-AF9 inh
COc1ccc(OC(=O)N(C)C[C@@H]2OCc3cnnn3CCCC(=O)N([C@@H](C)CO)C[C@H]2C)cc1	12&0	16&2	-2.7&-0.9	i	0.0&2.8
O=C(Cc1ccccc1)N1CCCCN2[C@H](CO)[C@H](c3ccc(C#Cc4ccccc4)cc3)[C@H]2C1	-58	-71	-12	i	-0.2
C/C=C1\NC(=O)[C@@H](NC(=O)[C@H](CCc2ccc(O)cc2)NC(=O)[C@H](C)NC(=O)[C@H](O)CO)[C@@H](C)OC(=O)[C@H](C(C)C)NC(=O)[C@H](Cc2ccc(O)cc2)N(C)C(=O)[C@H](Cc2ccccc2)N2C(=O)C(CC[C@H]2O)NC1=O (stereo not given in full)	18	16	-0.6	i	-0.2
O=C(Cc1cccnc1)N1CCCCN2[C@H](CO)[C@@H](c3ccc(/C=C/c4ccccc4)cc3)[C@@H]2C1	-58	-69	-12	i	9.0

Next section
SMILES	Ecoli rRNA inh	Ecoli rRNA inh OD600	Ecoli rRNA inh RFP	FGF22 binding	MLL AF4-AF9 inh
C[C@@H]1CN([C@@H](C)CO)C(=O)c2c(c3ccccc3n2C)-c2ccccc2CO[C@@H]1CN(C)C(=O)Oc1ccccc1	0	4	-0.9	i	2.0
COC(=O)[C@H]1[C@H](CO)[C@H]2Cn3c(ccc(C4=CCCC4)c3=O)[C@@H]1N2C(=O)CC1CC1	2	2	-0.6	i	-3.0
CC12CCC(=O)C=C1CCC1C2CCC2(C)C1CCC2(O)CC#N (stereo not given)	-11	-11	3.2	i	0.2
O=C1c2ccccc2-n2nnnc2C2c3ccccc3-n3nncc3CN12 (stereo not given)	8	11	0.1	i	-0.8
